# Compound activity (PubChem)
# CtBP-E1A inh = CtBP/E1A binding inhibition. AlphaScreen GST-E1A/His-CtBP binding, 1536-well; stronger effect = lower value; control for the full effect not named in the record. activity change, % (concentration not given with the values). hit rate 0.49% among 340,000; in the data active means activity change below about -65%; inconclusive means about -30% to -65%; inactive means above about -30%; note: % is set by controls: 0 for no effect and ±100 for the full control effect
#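 In 5 uL wells, 23 nL compound meets equimolar GST-E1A and His-CtBP (5X stock 125 nM each) for 2 h, 37 °C. Beads (5X, 50 ug/mL) then 1 h, 37 °C, dark.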
# TRPV1 potentiator = human TRPV1 potentiation; Q8NER1; TRPV1-expressing cells, Fluo-8 calcium influx, capsaicin EC20 potentiation; host cell line not named in the record; control for the full effect not named in the record; potentiation, % at 8.33 µM; hit rate 0.02% among 320,000; active means potentiation above 80%; inconclusive means 30% to 80%; inactive means below 30%; note: 0% is about no effect
# Target sequence (Q8NER1 whole entry, looked up): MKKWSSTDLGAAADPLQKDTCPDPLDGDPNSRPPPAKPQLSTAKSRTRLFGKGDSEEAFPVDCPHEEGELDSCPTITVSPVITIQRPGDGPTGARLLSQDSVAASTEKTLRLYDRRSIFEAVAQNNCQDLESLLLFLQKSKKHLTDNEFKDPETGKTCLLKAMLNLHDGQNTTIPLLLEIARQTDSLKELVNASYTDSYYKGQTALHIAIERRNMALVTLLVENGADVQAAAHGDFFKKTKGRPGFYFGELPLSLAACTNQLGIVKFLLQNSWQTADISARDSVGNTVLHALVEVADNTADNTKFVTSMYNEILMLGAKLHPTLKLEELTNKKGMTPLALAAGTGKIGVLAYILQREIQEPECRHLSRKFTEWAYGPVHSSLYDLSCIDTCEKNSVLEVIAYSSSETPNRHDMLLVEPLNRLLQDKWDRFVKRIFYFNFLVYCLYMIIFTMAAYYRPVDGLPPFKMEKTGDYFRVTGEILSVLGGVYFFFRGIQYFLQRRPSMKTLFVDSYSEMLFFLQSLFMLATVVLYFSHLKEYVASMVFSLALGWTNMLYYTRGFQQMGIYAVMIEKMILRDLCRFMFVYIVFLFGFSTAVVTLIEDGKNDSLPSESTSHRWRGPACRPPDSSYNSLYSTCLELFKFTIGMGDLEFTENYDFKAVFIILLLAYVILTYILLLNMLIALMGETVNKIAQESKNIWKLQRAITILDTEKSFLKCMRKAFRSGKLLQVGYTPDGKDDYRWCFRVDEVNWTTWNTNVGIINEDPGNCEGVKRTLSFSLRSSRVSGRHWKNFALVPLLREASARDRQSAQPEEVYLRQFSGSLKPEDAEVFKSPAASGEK
#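 Cells expressing TRPV1 were dye-loaded with Fluo-8 and read kinetically: 10 s baseline, 3 min after compound (agonist portion), then 2 min after EC20 capsaicin (allosteric enhancer portion). Calcium-bound dye fluorescence at 480/520 nm.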
# Sfp PPTase inh = Sfp phosphopantetheinyl transferase inhibition; Q9F4F7; Biochemical Sfp PPTase activity, qHTS; Potency, µM, without a hit: max response, negative = inhibition, usual class: inhibitors; hit rate 3.5% among 310,000; AID 1490; active = well fitted inhibition curve with a large enough effect; inconclusive = small, poorly fitted or top-dose-only effect, or another doubt; inactive = no such curve, though single readings can be large or run the other way;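 note: the enzyme is Sfp with the accession as filed and its product quenches rhodamine fluorescence; potency is the fitted concentration of half-maximal effect; 0% = enzyme reaction without inhibitor and -100% = no enzyme wells; top concentration of the series not given in the record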
#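 Reaction rates are the 30-min fluorescence difference (ex 525, em 598 nm) in wells containing 15 nM Sfp, 5 uM rhodamine-CoA and 12.5 uM BHQ-2-YbbR at pH 7.6 with 10 mM MgCl2.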
# Menin MLL FP FL = displaces fluorescein MLL peptide from human menin; Fluorescence polarization, fluorescein-MLL peptide displacement from menin; AID 1766; 290,000 tested, under 10 active; FP activity change, % at 61.4 µM; inconclusive = falling polarisation curve, or a change in total fluorescence; inactive = total fluorescence flat and polarisation flat or rising; no compound was filed as active; the % refers to the polarisation; negative = inhibition;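 note: % of control where 0% means no effect; inhibitors lower the polarisation; unlabelled MLL peptide was the positive control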
# gsp antagonist = antagonists of gsp mutant (McCune-Albright syndrome) | gsp-mutant cells, cAMP HTRF, 30 min; control for the full effect not named in the record | Potency, µM (series often up to 76.9 µM), for inactives: top-dose activity change, negative = inhibition, actives largely listed as inhibitors | hit rate 0.4% among 340,000 | AID 624288; active = falling curve of any shape with a large fitted effect; inconclusive = falling curve, mostly with a smaller effect; inactive = flat or rising curve; cell line not stated here;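 note: intracellular cAMP measured with PDE inhibitor Ro 20-1724 present during compound exposure; potency is the fitted concentration of half-maximal effect; % is set by controls: 0 for no effect and ±100 for the full control effect; nearly all actives have a fitted effect of over 65% in size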
#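 Cells in G418 medium, seeded 16-24 h, 37C; buffer exchange to DPBS + 1 mM CaCl2, 0.5 mM MgCl2, 0.05% BSA; cpds in DMSO + […] (300 uM stock), 30 min 37C; HTRF cAMP detection.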
# ClpP mod = qHTS Assay for Activators of ClpP; purified B. subtilis ClpP, FRET peptide cleavage, 20 min; AID 651965, 2013; Potency, µM (doses to about 57.5 µM), for the others: at the highest dose activity change, negative = active; hit rate 1.9% among 340,000; active = well fitted falling curve with a large enough effect; inconclusive = small, poorly fitted or top-dose-only effect; inactive = no such curve, though single readings can be large or run the other way; note: potency is the fitted concentration of half-maximal effect; the source files actives as falling curves though it sought activators and does not explain the sign; nearly all actives have a fitted effect of over 65% in size; many hits overshoot -100%
# Target sequence (P80244 whole entry, looked up): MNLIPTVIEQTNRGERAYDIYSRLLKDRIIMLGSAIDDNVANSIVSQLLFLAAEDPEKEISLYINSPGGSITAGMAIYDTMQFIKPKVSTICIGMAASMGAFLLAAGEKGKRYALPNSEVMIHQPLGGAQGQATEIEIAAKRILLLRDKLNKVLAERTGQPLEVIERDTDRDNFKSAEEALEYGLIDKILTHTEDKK
#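 ClpP 10 microg/mL final, pH 8 Tris/KCl buffer with BSA, glycerol, Tween-20; compound pinned in; FRET-FV substrate; RT 20 min; Ex320/Em430; ΔFRET vs ADEP 5.8 microM, DMSO, no enzyme.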
# gsp agonist = agonists of gsp mutant (McCune-Albright syndrome) | gsp mutant cells, cAMP HTRF, 30 min; control for the full effect not named in the record | Potency, µM (highest dose often 76.9 µM), for inactives: at the top dose activation (cAMP increase), most hits filed as activators | AID 624287 | hit rate 0.13% among 340,000; active = well fitted activation curve with a large enough effect; inconclusive = small, poorly fitted or top-dose-only effect, or another doubt; inactive = no such curve, though single readings can be large or run the other way; cell line not stated here;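 note: phosphodiesterase inhibitor Ro 20-1724 added with compounds to block cAMP breakdown; potency is the fitted concentration of half-maximal effect; nearly all actives have a fitted effect of over 60% in size; about a fifth of the inactives were tested at one dose only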
#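 Cells in DMEM/10% FBS with G418 were pretreated with compounds in DMSO plus […] (300 uM stock) for 30 min at 37C. cAMP was measured by HTRF (cAMP-d2 plus anti-cAMP antibody-K) after 30 min at room temperature.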
# Active calls of the source: *; ? = inconclusive; . = not tested or not shown; & = joins results of further samples; [ ] = remark or other dose.
1: C/C(=N/OC(=O)C1CC1)c1cc(-c2ccc(Cl)cc2)no1
2: CCCN=C1N(CC)C[C@@H]2[C@@H]3C(=O)N(Cc4ccccc4)C(=O)[C@@H]3[C@](Cc3ccccc3)(C(=O)OC)N12
3: Cc1[nH]nc(Nc2ccc(Br)cc2)c1[N+](=O)[O-]
4: C/C(=N\NC(=O)c1cccc(S(=O)(=O)N2CCOCC2)c1)c1cc2ccccc2o1
5: O=C(N/N=C/c1ccco1)c1cc(-c2ccc(Br)s2)[nH]n1
6: O=C(NCC1CCCO1)C1c2ccccc2C(=O)N1C1CCCCCCC1 (configuration not stated)
7: CCS(=O)(=O)n1nc(-c2ccco2)nc1SC
8: O=C1CSC(=S)N1N=Cc1ccc(OCc2ccccc2)cc1
assay / entry	1	2	3	4	5	6	7	8
CtBP-E1A inh	-9	1	-5	.	-1	9	2	-21
TRPV1 potentiator	6	.	10	-4	5	0	3	.
Sfp PPTase inh	12%	.	3%	7%	18%	1%	35µM*	.
Menin MLL FP FL	-1.6	.	2.4	4.8	3.0	7.3	?	.
gsp antagonist	4%	6%	-30%	-1%	-22%	-3%	1%	.
ClpP mod	-0.6%	0.8%	1.2%	-5.4%	.	-1.0%	2.1%	-2.2%
gsp agonist	-20%	.	-31%[inhibitor]	14%	-32%	0%	-2%	?

# Next section; the last four above are carried over.
5: O=C(N/N=C/c1ccco1)c1cc(-c2ccc(Br)s2)[nH]n1
6: O=C(NCC1CCCO1)C1c2ccccc2C(=O)N1C1CCCCCCC1 (configuration not stated)
7: CCS(=O)(=O)n1nc(-c2ccco2)nc1SC
8: O=C1CSC(=S)N1N=Cc1ccc(OCc2ccccc2)cc1
9: CCn1c2ccccc2c2cc(NC(=O)C(=O)N3CCOCC3)ccc21
10: O=C(NCc1ccccc1)Nc1cc(Cl)ccc1Cl
11: COc1ccc(Oc2c(C)oc3c(CN(C)C)c(O)ccc3c2=O)cc1
12: CCc1ccc2c(c1)C(NC(C)=O)C(=O)N2CC (configuration not stated)
13: CCC(Nc1ccc(OC)cc1)C(=O)N/N=C/c1ccc([N+](=O)[O-])cc1 (configuration not stated)
14: CC(Oc1ccc(Cl)cc1)c1ccnn1S(C)(=O)=O (configuration not stated)
15: CCN(c1ccccc1)S(=O)(=O)c1ccc(C(=O)N2CCN(c3ccccc3F)CC2)cc1
16: Nc1c(C(=O)CSc2n[nH]c(-c3ccccc3Br)n2)c(=O)[nH]c(=O)n1C1CC1
assay / entry	5	6	7	8	9	10	11	12	13	14	15	16
CtBP-E1A inh	-1	9	2	-21	-6	-2	4	3	-1	6	0	.
TRPV1 potentiator	5	0	3	.	-26	1	-1	15	-1	11	.	5
Sfp PPTase inh	18%	1%	35µM*	.	0%	16%	14%	56µM*	-1%	-11%	.	.
Menin MLL FP FL	3.0	7.3	?	.	0.1	-2.2	-1.0	7.5	2.2	6.9	.	.
gsp antagonist	-22%	-3%	1%	.	1%	9%	2%	9%	-12%	-6%	.	7%
ClpP mod	.	-1.0%	2.1%	-2.2%	.	.	28µM*	1.0%	-0.7%	-0.6%	-0.1%	1.3%
gsp agonist	-32%	0%	-2%	?	11%[15.4 µM]	1%[15.4 µM]	?	14%	1%	-18%	-17%	?

17: O=C(Cc1cc(=O)[nH]c(=O)[nH]1)N1CCN(C(=O)c2ccco2)CC1
18: COc1ccc(C(C)(C)C)cc1S(=O)(=O)N1CCC(C(N)=O)CC1
19: OC(CNC1CCCCC1)COCCOc1ccc(Br)cc1 (configuration not stated)
20: Cc1cccc(CC(=O)Nc2ccc(C(=O)N3CCOCC3)cc2)c1
21: COc1ccc(-c2csc(N3C(=O)CNC3=S)n2)cc1
22: CCN1CCN(c2ccc(NC(=O)c3cccc(N4CCCC4=O)c3)cc2)CC1
23: CNS(=O)(=O)c1cc(Cl)ccc1Sc1ccccc1C(=O)O
24: Nc1cc(Cl)ccc1N1CCCC1
assay / entry	17	18	19	20	21	22	23	24
CtBP-E1A inh	11	12	-13	0	-10	1	-8	-2
TRPV1 potentiator	?	-2	?	4	12	-8	-2	9
Sfp PPTase inh	13%	-6%	1%	5%	-6%	10%	18%	-6%
Menin MLL FP FL	0.8	1.0	3.6	.	.	2.2	1.5	-2.6
gsp antagonist	13%	2%	20%	8%	-4%	-16%	9%	2%
ClpP mod	-0.4%	-11%	1.8%	-4.0%	-4.5%	.	-0.6%	-8.2%
gsp agonist	-31%	?	-13%	-29%	-11%	-24%	-7%[15.4 µM]	-1%[15.4 µM]

25: COc1ccc(NC(=S)N(CCCOC(C)C)C2CCN(C(C)=O)CC2)cc1Cl
26: Cc1ccc(S(=O)(=O)C(F)(F)F)cc1NC(=O)c1cccnc1
27: Cc1[nH]c2ccccc2c1C(=O)CSc1ccc(Cl)cc1
28: CCC(=O)N1CCc2cc(S(=O)(=O)NCCC(=O)Nc3ccc(OC)cc3)ccc21
29: Fc1ccc(Cn2c(SCc3ccc(F)c(F)c3)nnc2C(F)(F)F)cc1
30: CCOc1cc(S(=O)(=O)N2CCCCC2)ccc1Cl
31: CN(C(=O)c1ccc(N2CCOCC2)c([N+](=O)[O-])c1)C1CCCCC1
32: CCOC(=O)c1sc(NC(=O)CSCc2c(C)noc2C)nc1C
assay / entry	25	26	27	28	29	30	31	32
CtBP-E1A inh	.	4	-4	2	16	7	5	-1
TRPV1 potentiator	22	-1	5	8	.	9	-4	-4
Sfp PPTase inh	8%	12%	15%	10%	3%	-2%	0%	.
Menin MLL FP FL	?	0.1	-1.4	5.4	-0.2	0.7	2.6	.
gsp antagonist	-7%	0%	.	4%	-2%	-8%	9%	-13%
ClpP mod	1.1%	-2.0%	.	-1.0%	0.9%	-29%	0.9%	-2.6%
gsp agonist	-26%	-16%	-3%[15.4 µM]	?	15%	-5%[15.4 µM]	-19%[15.4 µM]	-44%[inhibitor]

33: CC(C)COC(=O)N(C)C[C@@H]1OCc2cnnn2CCCC(=O)N([C@@H](C)CO)C[C@@H]1C
34: CN(Cc1cnn(C)c1)C(=O)C1CCC(=O)N(C2CCCCCC2)C1 (configuration not stated)
35: Cc1cc(NC(=O)CSc2nc(CCC3CCCC3)nc3ccccc23)no1
36: C=CCC(c1ccccc1F)N(CCN1CCOCC1)C(=O)Nc1cccc(Cl)c1 (configuration not stated)
37: O=S(=O)(c1cccs1)N1CCN(c2ccc(F)cc2)CC1
38: CC(=O)c1cccc(N(CC(=O)N2CCOCC2)S(C)(=O)=O)c1
39: C=CCn1c(SCC(=O)N2CCCCCC2)nc2ccccc2c1=O
40: CCOC(=O)c1cc(Br)c(=O)n2ccccc12
assay / entry	33	34	35	36	37	38	39	40
CtBP-E1A inh	4	12	0	-5	-1	7	2	8
TRPV1 potentiator	.	4	11	-21	-3	14	-16	-8
Sfp PPTase inh	.	4%	16%	-11%	26%	11%	-17%	12%
Menin MLL FP FL	.	.	2.7	-2.2	-2.4	-0.7	-1.6	3.7
gsp antagonist	.	-9%	8%	-21%	0%	6%	-8%	-11%
ClpP mod	0.6%	0.5%	-1.5%	-0.8%	.	0.6%	.	1.2%
gsp agonist	3%	-9%	10%	-18%	-21%	5%	-23%	32%

41: COc1cccc(N2CCN(C(=O)CN(C)S(=O)(=O)c3ccc4c(c3)CCC(=O)N4)CC2)c1
42: CSc1nc2ccc(NS(=O)(=O)c3ccc(CNC(C)=O)cc3)cc2s1
43: CCC1COCCS(=O)(=O)N1Cc1ccc(F)cc1 (configuration not stated)
44: CN(C)c1oc(-c2ccccc2[N+](=O)[O-])nc1C#N
45: COc1ccc(C(C)NC(=S)NCc2ccc(F)cc2)cc1OC (configuration not stated)
46: O=C(O)CSc1cccc[n+]1[O-]
47: O=c1cc(CNc2cc(Cl)ccc2Cl)nc2sccn12
48: Cc1ccc(N(C(=O)c2ccccc2Cl)C2=NC(C)CS2)c(C)c1 (configuration not stated)
assay / entry	41	42	43	44	45	46	47	48
CtBP-E1A inh	0	-6	5	.	-9	2	5	.
TRPV1 potentiator	-7	10	-2	0	-15	-9	5	-5
Sfp PPTase inh	1%	.	24%	10µM*	18%	9%	-18%	-4%
Menin MLL FP FL	-0.8	.	0.9	0.9	.	2.8	-2.2	7.4
gsp antagonist	-9%	-2%	6%	-2%	1%	7%	5%	-19%
ClpP mod	-0.3%	-2.9%	-0.5%&-0.7%	-12%	-2.9%	-0.5%	0.5%	0.1%
gsp agonist	-4%	?	29%	6%	10%[15.4 µM]	2%	0%[15.4 µM]	-27%

49: CCCCn1nc(C(=O)Nc2ccccc2N2CCCC2)c2ccccc2c1=O
50: COc1ccc(C(=O)/C=C/Nc2ccc(S(=O)(=O)Nc3nc(C)cc(C)n3)cc2)c(OC)c1
51: Cn1cc(Br)c(C(=O)Nc2sc3c(c2C#N)CCC3)n1
52: Cc1c2c(c(C)n1C)C(C(=O)NC1CCCCC1)N(Cc1ccccc1)C2=O (configuration not stated)
53: Cc1nnc(SCC(=O)N2CC(=O)Nc3ccccc32)s1
54: O=C(O)C1=C[C@@H](c2ccc3c(c2)OCO3)C[C@@H](OCCCCO)O1
55: CC(NC(=O)CNC(=O)c1ccc2c(c1)OCO2)c1ccc(S(N)(=O)=O)cc1 (configuration not stated)
assay / entry	49	50	51	52	53	54	55
CtBP-E1A inh	-27	-20	-4	-1	-5	0	2
TRPV1 potentiator	-1	3	-5	-1	-1	3	-4
Sfp PPTase inh	.	-7%	-21%	13%	12%	11%	.
Menin MLL FP FL	.	13	8.2	1.2	-0.1	10	.
gsp antagonist	-7%	-18%	?	-26%	.	17%	6%
ClpP mod	-1.6%	.	-1.2%	.	.	-5.0%	-12%
gsp agonist	11%	-27%[15.4 µM]	13%[15.4 µM]	-5%[15.4 µM]	-4%[15.4 µM]	.	4%
